gsp antag: antagonists of gsp mutant (McCune-Albright syndrome) | gsp-mutant cells, cAMP HTRF, 30 min; control for the full effect not named in the record | Potency, µM (highest dose often 76.9 µM), for inactives: at the highest dose activity change, negative = inhibition, most hits filed as inhibitors | 340,000 tested, 0.4% active | AID 624288; active = falling curve of any shape with a large fitted effect; inconclusive = falling curve, mostly with a smaller effect; inactive = flat or rising curve; cell line not stated here;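 further: intracellular cAMP measured with PDE inhibitor Ro 20-1724 present during compound exposure; potency means the concentration at half of the fitted maximal effect; on the % scale 0 is the no-effect control and ±100 the full control effect; nearly all actives have a fitted effect of over 65% in size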
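HTRF cAMP measurement after 30 min RT detection following 30 min, 37C compound treatment alongside […] (added as 300 uM solution) in G418-selected cells seeded at 2000/well and grown 16–24 h.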
gsp agonist: agonists of gsp mutant (McCune-Albright syndrome); Potency, µM (titrated, usually from 76.9 µM), inactives show at the highest dose activation (cAMP increase), most hits filed as activators; gsp mutant cells, cAMP HTRF, 30 min; control for the full effect not named in the record; 340,000 tested, 0.13% active; active = well fitted activation curve with a large enough effect; inconclusive = small, poorly fitted or top-dose-only effect, or another doubt; inactive = no such curve, though single readings can be large or run the other way; cell line not stated here;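 further: phosphodiesterase inhibitor Ro 20-1724 added with compounds to block cAMP breakdown; potency means the concentration at half of the fitted maximal effect; nearly all actives have a fitted effect of over 60% in size; about a fifth of the inactives were tested at one dose only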
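Cells stably selected in G418 were plated at 2000/well, grown 16-24 hr, then given compounds in DMSO with the PDE inhibitor […] (300 uM solution added) for 30 min at 37C; cAMP was read by HTRF.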
Sfp inh: Sfp phosphopantetheinyl transferase inhibition; Biochemical Sfp PPTase activity, qHTS; Potency, µM, for the others: max response, negative = inhibition, actives largely listed as inhibitors; 310,000 tested, 3.5% active; active means well fitted inhibition curve with a large enough effect; inconclusive means small, poorly fitted or top-dose-only effect, or another doubt; inactive means no such curve, though single readings can be large or run the other way;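 further: the enzyme is Sfp with the accession as filed and its product quenches rhodamine fluorescence; potency means the concentration at half of the fitted maximal effect; 0% = enzyme reaction without inhibitor and -100% = no enzyme wells; top concentration of the series not given in the record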
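Fluorescence-quenching assay: 15 nM Sfp-PPTase preincubated 15 min at room temperature with compound, then 5 uM rhodamine-CoA and 12.5 uM BHQ-2-labelled YbbR peptide added. Fluorescence (ex 525/em 598 nm) read at start and after 30 min; difference gives rate.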
TRPML1 blocker: inhibitors of human TRPML1 channel; Q9GZU1; TRPML1-inducible cells, Ca2+ dye fluorescence, FDSS; stronger effect = lower value; inhibition of EC80 agonist-evoked calcium signal; activity change, negative = inhibition, % (no concentration beside the values); 390,000 tested, 0.02% active; AID 624415; in the data active means activity change below about -50%; inconclusive means about -30% to -50%; inactive means above about -30%;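 further: stimulus is agonist 54-4 at its EC80 concentration; on the % scale 0 is the no-effect control and ±100 the full control effect; compound concentration not given in the record; the text of the record puts the active cut at -80%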
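Calcium fluorescence in TRPML1-DL cells induced overnight with Tet: a 110 s read after compound pin addition, then a 110 s antagonist read after challenge with 54-4 at 4 uM final (EC80).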
ClpP mod: qHTS Assay for Activators of ClpP; ATP-dependent Clp protease proteolytic subunit (Bacillus subtilis (strain 168)), P80244; purified B. subtilis ClpP, FRET peptide cleavage, 20 min; Potency, µM (doses to about 57.5 µM), for inactives: top-dose activity change, negative = active; 340,000 tested, 1.9% active; AID 651965, 2013; active = well fitted falling curve with a large enough effect; inconclusive = small, poorly fitted or top-dose-only effect; inactive = no such curve, though single readings can be large or run the other way; further: potency means the concentration at half of the fitted maximal effect; the source files actives as falling curves though it sought activators and does not explain the sign; nearly all actives have a fitted effect of over 65% in size; many hits overshoot -100%
Target sequence (P80244 whole entry, looked up): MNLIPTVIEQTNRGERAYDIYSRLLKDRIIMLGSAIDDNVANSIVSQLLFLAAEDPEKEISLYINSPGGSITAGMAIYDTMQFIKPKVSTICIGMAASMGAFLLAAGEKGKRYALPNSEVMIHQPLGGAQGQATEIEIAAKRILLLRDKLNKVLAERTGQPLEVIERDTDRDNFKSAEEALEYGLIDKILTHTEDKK
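ClpP 10 microg/mL final, pH 8 Tris/KCl buffer with BSA, glycerol, Tween-20; compound pinned in; FRET-FV substrate; RT 20 min; Ex320/Em430; ΔFRET vs ADEP 5.8 microM, DMSO, no enzyme.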
Menin MLL FP FL: menin-MLL binding inhibition, fluorescein peptide. FP activity change, % at 61.4 µM. Fluorescence polarization, fluorescein-MLL peptide displacement from menin. 290,000 tested, under 10 active; inconclusive = falling polarisation curve, or a change in total fluorescence; inactive = total fluorescence flat and polarisation flat or rising; no compound was filed as active; the % refers to the polarisation; negative = inhibition;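 further: % of control where 0% means no effect; inhibitors lower the polarisation; unlabelled MLL peptide was the positive control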
TRPV1 PAM: enhances activation of the human vanilloid receptor TRPV1; AID 540277; Q8NER1; TRPV1-expressing cells, Fluo-8 calcium influx, capsaicin EC20 potentiation; host cell line not named in the record; control for the full effect not named in the record; 320,000 tested, 0.02% active; potentiation, % at 8.33 µM; active means potentiation above 80%; inconclusive means 30% to 80%; inactive means below 30%; further: 0% is about no effect
Target sequence (Q8NER1 whole entry, looked up): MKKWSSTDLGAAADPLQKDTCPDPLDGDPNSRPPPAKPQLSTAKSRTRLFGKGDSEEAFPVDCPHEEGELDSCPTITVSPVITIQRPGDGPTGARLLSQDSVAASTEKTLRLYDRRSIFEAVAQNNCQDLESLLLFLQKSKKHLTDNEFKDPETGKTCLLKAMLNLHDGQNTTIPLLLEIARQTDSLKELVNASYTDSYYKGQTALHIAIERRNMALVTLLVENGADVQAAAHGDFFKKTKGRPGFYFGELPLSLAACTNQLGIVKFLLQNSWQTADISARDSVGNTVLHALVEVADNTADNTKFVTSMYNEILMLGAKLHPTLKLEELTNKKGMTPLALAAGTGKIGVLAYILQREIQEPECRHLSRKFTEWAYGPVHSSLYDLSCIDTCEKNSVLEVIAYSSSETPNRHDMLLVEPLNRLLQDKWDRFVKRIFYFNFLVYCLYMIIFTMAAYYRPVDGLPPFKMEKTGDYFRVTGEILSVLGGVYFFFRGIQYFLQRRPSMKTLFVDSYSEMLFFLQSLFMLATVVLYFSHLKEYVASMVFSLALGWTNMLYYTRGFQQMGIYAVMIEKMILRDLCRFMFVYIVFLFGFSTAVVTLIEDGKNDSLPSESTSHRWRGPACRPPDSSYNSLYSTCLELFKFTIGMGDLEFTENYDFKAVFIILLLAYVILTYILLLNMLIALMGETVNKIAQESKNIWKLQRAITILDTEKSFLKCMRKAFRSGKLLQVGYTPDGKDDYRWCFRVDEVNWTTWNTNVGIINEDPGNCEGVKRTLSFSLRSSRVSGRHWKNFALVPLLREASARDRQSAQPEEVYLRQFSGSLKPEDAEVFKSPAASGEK
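TRPV1-expressing cells were cultured overnight at 35.5C and loaded with Fluo-8 calcium dye for 40 to 90 min at room temperature. After a 10 s baseline, compound was added and calcium influx was read kinetically for 3 min (ex 480/em 520 nm).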
Starred values were filed as active, the others as inactive; ? = inconclusive; . = no result given; & = joins results of further samples; [ ] = remark or other dose.

canonical_smiles | gsp antag | gsp agonist | Sfp inh | TRPML1 blocker | ClpP mod | Menin MLL FP FL | TRPV1 PAM
Cc1ccc(Cn2nnc3c(=O)n(CC(=O)N4CCN(c5ccccc5)CC4)cnc32)cc1 | -1% | -9% | 11% | 6 | -6.5% | -0.4 | 23
Cc1cc(C)n(CCCO)c(=O)c1C#N | 6% | -19% | 13% | 5 | -18% | -0.4 | .
CCN(CC)S(=O)(=O)c1ccc(N2CCOCC2)c(NC(=O)CCC2CCCCC2)c1 | -9% | 20% | ? | -10 | -1.5% | 18 | 3
COc1ccc(O)c(/C=C(\C#N)C(=O)Nc2ccccn2)c1 | 1% | 4% | 9% | -2 | 3.4% | ? | 0
CSc1ncc(C(=O)NCCCc2ccccc2)c(C)n1 | 2% | 5% | 12% | -14 | -8.0% | -5.5 | ?
CO/N=C/c1ccc(OC)c(Oc2nc(OC)cc(OC)n2)c1 | -2% | 16% | 13% | -8 | . | -1.6 | 2
COc1cc(C2C(C#N)=C(N)OC3=C2C(=O)CCC3)cc(OC)c1OC(=O)N1CCOCC1 (stereo not given) | 3% | -22% | 3% | -27 | -1.2% | 1.5 | ?
Cc1ccc(NC(=O)Cn2cnc3c(NCc4ccccc4)ncnc32)cc1C | 3% | . | . | -11 | -0.2% | . | .
CN(C)CCNc1cnn(-c2ccccc2)c(=O)c1Cl | 10% | 6% | 6% | -10 | -1.8% | 2.4 | 15
CC(C)C(=O)NC(CC(=O)O)c1ccccc1 (stereo not given) | -4% | 0%[15.4 µM] | 16% | 6 | . | 0.2 | 28
CC1CC1C(=O)N(C)CC(=O)Nc1cccc(F)c1 (stereo not given) | 9% | ? | . | -7 | 0.5% | . | 1
COc1ccc(N(C)S(=O)(=O)c2cccc(C(=O)NC3CCCCC3C)c2)cc1 (stereo not given) | -18% | 1%[15.4 µM] | -5% | 17 | . | 2.3 | -8
COC(=O)C1=C(N)Oc2cc(C)n(CCCn3ccnc3)c(=O)c2C1c1cccc(Cl)c1 (stereo not given) | 5% | -15% | 4% | -3 | -1.4% | 0.9 | 6
O=C(NCc1ccccn1)C1CCN(S(=O)(=O)c2cnc[nH]2)CC1 | 11% | 7% | 20% | -13 | -0.7% | -4.1 | -3
CN1CCN(c2ccc(NC(=O)c3ccccc3)cc2)CC1 | 0% | -8% | 6% | 15 | -1.6% | 4.9 | 1
c1ccc(-c2nnc3sc(-c4cc5ccccc5o4)nn23)cc1 | -11% | -6% | 5% | -3 | 4.2% | 0.8 | -14
O=C(CN(C(=O)CCC(=O)Nc1nccs1)c1ccc(F)cc1)NCc1ccc2c(c1)OCO2 | -4% | -4% | -9% | -22 | . | -1.5 | -4
COc1ccc(NC(=O)C2CCCN(S(=O)(=O)c3cccc4nonc34)C2)cc1OC (stereo not given) | -17% | 0% | 18% | 11 | . | 0.6 | 4
O=C(O)C1SCCN1S(=O)(=O)c1ccc(N=NN2CCOCC2)cc1 (stereo not given) | . | -17%[15.4 µM] | ? | -2 | . | -3.1 | 16
Cc1ccc(NS(=O)(=O)c2ccc3c(c2)oc(=O)n3C)c(C)c1 | 1% | -6% | 5% | 3 | . | 0.4 | 0
COc1ccc(/C=N/n2cncn2)cc1Cn1cc([N+](=O)[O-])cn1 | 1% | -21% | 14% | -3 | -0.4% | 6.4 | .
CC(C)Oc1ccc(C(CC(=O)O)NC(=O)C(Sc2ccccc2)c2ccccc2)cc1 (stereo not given) | -23% | 6%[15.4 µM] | 20% | -16 | . | -4.9 | 1
COc1ccccc1-n1c(SCC(=O)Nc2ccc(NC(C)=O)cc2)nc2c([nH]c3ccccc32)c1=O | -8% | -2% | 26% | 6 | ? | -3.4 | 15
CC(C)c1nc2cc(C(=O)N(C)Cc3ccc(F)cc3)ccc2o1 | 5% | -44%[inhibitor] | 16% | -8 | -2.8% | . | -14
CC(C)CCNC(=O)C1(O)c2ccccc2NC(=O)N1c1ccc(Cl)cc1 (stereo not given) | -1% | -43%[inhibitor] | 17% | 6 | . | 2.9 | 9
COc1cccc2cc(-c3ccccc3)c(=O)oc12 | -3% | 0% | 16% | -2 | . | 4.3 | 12
O=c1cc(C(F)(F)F)nc(-c2cccnc2)[nH]1 | -3% | -16%[15.4 µM] | 18% | 4 | . | -1.6 | -1
COc1cccc2cc(S(=O)(=O)c3ccccc3)c(=Nc3ccc4c(c3)OCCO4)oc12 | 6% | -21% | 5% | 5 | -1.0% | 6.2 | 7
O=C(Nc1ccc2c(c1)OCCO2)C1CCCN1S(=O)(=O)c1ccc(Cl)cc1 (stereo not given) | -12% | 5% | 3% | -2 | -2.2% | -0.5 | 14
COc1ccc(OC)c(S(=O)(=O)Nc2ccc(Oc3ccccc3)cc2)c1 | -11% | 11% | 4% | 22 | -1.8% | -0.6 | -11
NS(=O)(=O)c1ccc(NC(=O)C(=O)NCCC(=O)O)cc1 | 4% | -6%[15.4 µM] | 10% | 9 | . | 2.2 | -2
Cc1cc(C(=O)NC2CCCc3c2cnn3-c2ccc(C)c(C)c2)nc(C)n1 (stereo not given) | -12% | -40%[inhibitor] | 3% | 22 | 0.8% | . | -17
Cc1ccc(C(=O)O/N=C2/CC3CCC2(C)[C@@]3(C)CBr)cc1 (stereo not given in full) | -1% | -7%[15.4 µM] | -5% | 90 | -2.3% | 2.4 | -8
COc1cc(N=C(N)N=C(N)N)cc(OC)c1 | 14% | 2%[15.4 µM] | -17% | 14 | 3.7% | -4.2 | 9
NC(=O)CSc1nnc(-c2ccncc2)n1CCc1ccccc1 | 0% | ? | 18% | 6 | -3.5% | 3.0 | 1
Cc1ccc(CSCC(=O)NCc2cccnc2)cc1 | 8% | 3% | 9% | -11 | -2.6% | 2.2 | 1
COc1ccc(C(=O)CSc2nnc(CCc3ccccc3)n2-c2ccccc2)cc1 | ? | -2% | -18% | 10 | 2.0% | -1.1 | -9
Cc1ccc(NC(=O)CCNS(=O)(=O)c2ccc3c(c2)CCC(=O)N3)cc1C | 14% | -30% | 11% | 1 | -2.0% | . | ?
O=C(CSc1n[nH]c(-c2ccncc2)n1)Nc1ccc(Cl)cc1 | -17% | ? | 17% | 9 | . | -1.5 | -2
Cn1nc(-c2ccccc2)c(CSc2ccccc2)c1Cl | 1% | -8% | ? | 20 | ? | 1.6 | 5
O=C(O)C1CCCN(S(=O)(=O)c2ccc3c(c2)OCCO3)C1 (stereo not given) | -5% | -7%[15.4 µM] | -1% | 26 | . | 5.6 | -5
O=C1S/C(=C\c2ccc(Cl)cc2)C(=O)N1CCn1cnnn1 | 4% | -23% | 5% | -29 | 1.2% | -1.1 | -4
Cc1ccc(C)c(OCc2ccc(C(=O)Nc3ccc([N+](=O)[O-])cn3)o2)c1 | 1% | -14% | . | 8 | 0.7% | . | 10
Cc1cccc(N/C=C(\[N+](=O)[O-])S(=O)(=O)c2ccccc2)c1C | 6% | -19% | 1% | -3 | . | 0.8 | ?
COc1ccc2nc(/C(C#N)=C\c3ccc(Oc4ccc([N+](=O)[O-])cn4)cc3)[nH]c2c1 | 2% | 6% | 2% | 7 | 6.0% | . | -1
CCCCN(CC)C(=O)Cc1cn(C)c2ccccc12 | -14% | 2% | 5% | -5 | -25% | 2.9 | 3
O=C(CCn1c(=S)oc2ccccc21)N1CCN(c2ccc(F)cc2)CC1 | -9% | ? | 8% | -16 | 0.6% | -3.0 | ?
COc1cccc(CNC(=O)CCC2CCCN(C(=O)c3ccc(C)nc3)C2)c1 (stereo not given) | 13% | 24% | 4% | 1 | . | 1.5 | -2
Cc1ccc(SCC(=O)NC2CC2)cc1 | 11% | 13% | 14% | -9 | 2.5% | -2.6 | 2
CC(C)OCC(O)CN1CCNCC1 (stereo not given) | 5% | 0% | 7% | -7 | 0.5% | 0.8 | -1
CCC(=O)Nc1ccc(Br)c(Cl)c1 | -12% | 3% | 7% | -17 | -3.2% | 1.4 | -18
OCCNCCSc1ccc(Cl)cc1 | 17% | -34%[inhibitor] | -8% | -3 | 0.9% | -7.1 | -6
Cc1ccc2cc(C#N)c(NCCNC(=S)NCCCN(C)C)nc2c1C | 6% | -60%[inhibitor] | -4% | 9 | ? | 0.7 | 6
O=C(CSc1ncccn1)NC1CCS(=O)(=O)C1 (stereo not given) | 6% | -20% | 25% | 1 | -1.7% | . | 5
N#C/C(=C\c1cccc(NC(=O)c2ccccc2Cl)c1)C(=O)NCCc1ccccc1 | 1% | -11% | 8% | 24 | -24% | 0.7 | 4
CCN(CC)S(=O)(=O)c1ccc(OCC(=O)NC(=O)c2ccccc2OC)c([N+](=O)[O-])c1 | 9% | -74%[inhibitor] | 11% | -3 | 1.4% | 2.5 | 4
CCOC(=O)CSc1ccc2nnc(-c3ccccc3)n2n1 | 14% | ? | 16% | 4 | ? | -0.3 | 3
COc1cc(/C=C(\NC(=O)c2ccccc2)C(=O)NCCO)c([N+](=O)[O-])cc1OC | 0% | 12% | 14% | 17 | -2.9% | 0.6 | 1
COc1cccc(CN2CCNC(=O)C2CC(=O)NCCOc2cccnc2)c1 (stereo not given) | 5% | 1%[15.4 µM] | -8% | 0 | . | -11 | -7
Cc1ccc(-n2nc3c(N4CCC(C(=O)N5CCCCCC5)CC4)nnc(C)c3c2C)cc1 | -1% | 13% | -2% | 21 | -18% | . | -9

Next section
canonical_smiles | gsp antag | gsp agonist | Sfp inh | TRPML1 blocker | ClpP mod | Menin MLL FP FL | TRPV1 PAM
Cc1ccc(C(C)C)c(OCC(=O)Nc2ccc(N3CCN(S(C)(=O)=O)CC3)cc2)c1 | -4% | 0% | 10% | 34 | 0.0% | -3.2 | -2
COc1cc(/C=C/C(=O)OCC(=O)c2ccccc2)cc(OC)c1OC | -10% | -3% | . | 9 | -28% | . | .
CCOC(=O)C(NC(=O)c1ccc(F)cc1)(Nc1nnc(C)s1)C(F)(F)F (stereo not given) | -4% | 0% | 16% | 6 | 0.9% | 0.4 | 1
COc1ccccc1N1CCN(C(=O)c2cn(C)c3ccc(S(=O)(=O)N4CCOCC4)cc3c2=O)CC1 | 8% | 2% | 19% | -5&-5 | 1.5%&-0.3% | 1.0 | 7
CC(C)CC(=O)Nc1ccc2c3c(cccc13)CC2 | 1% | -28% | 16% | -8 | -1.5% | 4.0 | -4

Source: PubChem (National Center for Advancing Translational Sciences (NCATS))

An unsorted share of the library (roughly 4.9% active in at least one column).
